# Screens (PubChem BioAssay)
# Vaccinia inh = blocks a specific stage of Vaccinia orthopoxvirus infection, primary screen, cell-based, single point; Vaccinia-infected cells, mCherry/Venus stage reporter fluorescence; stronger effect = lower value; some inactives read as strong as hits; activity change (mCherry), % (concentration not given with the values); 89,000 tested, 0.01% active; AID 1053133, 2014;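 active = mCherry past -33% and 40 or more points under the early reporter, replicates agreeing; inconclusive = past -33% without that gap or agreement; tested in A549 cells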;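 also: scaled between vehicle wells and reference inhibitor wells; 23 nL library stock went into each well; one replicate is shown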
# Vaccinia inh Venus = second read-out of Vaccinia inh, no call of its own (marks repeat the call); activity change (Venus), %; measured here: Venus reporter, other viral stage;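 negative = less Venus signal; first of two replicates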
# Starred values were filed as active, the others as inactive; ? = inconclusive; · = not tested or not shown. An excerpt (hit frequency here may not be typical).
Molecule | Vaccinia inh | Vaccinia inh Venus
C[C@H](CO)N1C[C@H](C)[C@H](CN(C)Cc2cccc(F)c2)Oc2cc(C#Cc3ccccn3)ccc2S1(=O)=O | -20 | -18
COc1ccc(S(=O)(=O)N2C[C@H](O)COC[C@@H]3O[C@@H](CC(=O)N[C@H]4CCN(Cc5ccccc5)C4)CC[C@H]32)cc1 | -10 | -1
Cc1noc(C)c1NC(=O)N(C)C[C@@H]1OCCCC[C@@H](C)Oc2ccc(NS(=O)(=O)c3ccc(Cl)cc3)cc2C(=O)N([C@H](C)CO)C[C@@H]1C | 12 | 10
C/C=C/c1ccc([C@@H]2[C@@H](CO)N(C(=O)C3CC3)[C@H]2CN(C)C(=O)CN(C)C)cc1 | 6 | 7
CC(=O)N1[C@@H]2c3cccc(=O)n3C[C@H]1[C@H](CO)[C@H]2C(=O)NCC1CCCCC1 | -2 | 4
C/C=C/c1ccc2c(c1)O[C@@H](CN(C)C(=O)COC)[C@@H](C)CN([C@H](C)CO)S2(=O)=O | 7 | -1
CC(=O)NC[C@H]1[C@H](c2ccc(-c3ccccc3F)cc2)[C@H](CO)N1C(=O)C1CC1 | -1 | 0
C[C@@H]1CN([C@H](C)CO)S(=O)(=O)c2ccc(C3=CCCC3)cc2O[C@@H]1CN(C)C(=O)c1ccncc1 | 19 | 8
CO[C@@H]1CN(C)C(=O)c2ccc(NC(=O)Nc3cccc(F)c3)cc2OC[C@H](C)N(C(=O)Nc2c(C)noc2C)C[C@H]1C | 18 | 8
O=C(CC1CC1)Nc1ccc2c(c1)[C@@H]1C[C@@H](CC(=O)N3CCCCC3)O[C@H](CO)[C@@H]1O2 | 7 | 3
COc1ccc(C[C@H]2CCn3cc(nn3)COC[C@@H](C(C)C)NC2=O)cc1 | 8 | 12
CCC(=O)N1CCC2(CC1)CN(C(=O)c1cnccn1)[C@@H](CO)c1c2c2ccc(OC)cc2n1C | 15 | 8
COCC(=O)N(C)C[C@@H]1Oc2ncc(C#CC(C)(C)O)cc2C(=O)N([C@H](C)CO)C[C@H]1C | 10 | 7
O=C(CC1CC1)N[C@H]1CC[C@@H](CCNS(=O)(=O)c2ccc(F)cc2)O[C@H]1CO | 1 | 8
COc1ccc2c3c([nH]c2c1)[C@H](CO)NCC31CN(S(=O)(=O)c2cccs2)C1 | 28 | 9
CCO[C@@H]1OC(C(=O)NCc2ccccc2)=C[C@H](C(C)(C)C)[C@H]1CCCO | 9 | 4
C[C@@H]1CN([C@H](C)CO)C(=O)c2cccc(NC(=O)C3CCOCC3)c2O[C@@H]1CN(C)S(=O)(=O)c1ccc(Cl)cc1 | 6 | 3
Cc1ccc(S(=O)(=O)Nc2cccc3c2O[C@@H](CN(C)Cc2ccc(Oc4ccccc4)cc2)[C@H](C)CN([C@H](C)CO)C3=O)cc1 | -31 | -28
C[C@@H]1CN([C@H](C)CO)C(=O)c2cccc(NC(=O)c3ccncc3)c2O[C@H]1CN(C)CC1CCCCC1 | -2 | -1
O=C(C[C@@H]1CC[C@H](NC(=O)c2cccc(F)c2)[C@H](CO)O1)NCc1ccc(Oc2ccccc2)cc1 | ? | ·
C[C@H](CO)N1C[C@H](C)[C@H](CN(C)Cc2ccc3c(c2)OCO3)Oc2ccc(NC(=O)Nc3cccc4ccccc34)cc2C1=O | -11 | -10
CC(C)NC(=O)N(C)C[C@@H]1OCCCC[C@H](C)Oc2ccc(NS(=O)(=O)c3ccc(Cl)cc3)cc2C(=O)N([C@H](C)CO)C[C@H]1C | 4 | 5
O=C(C[C@@H]1C[C@@H]2c3cc(NC(=O)C4CCOCC4)ccc3O[C@@H]2[C@H](CO)O1)NCc1ccc(Oc2ccccc2)cc1 | 4 | 18
C[C@@H]1CN([C@H](C)CO)C(=O)c2cc(NC(=O)NC3CCCCC3)ccc2O[C@@H](C)CCCCO[C@@H]1CN(C)S(=O)(=O)c1ccc(Cl)cc1 | 20 | 29
CC(C)CC#Cc1cnc2c(c1)C(=O)N([C@H](C)CO)C[C@@H](C)[C@H](CN(C)C(=O)c1ccc(F)cc1)O2 | -32 | -27
COc1ccc(S(=O)(=O)Nc2ccc3c(c2)[C@H]2C[C@@H](CC(=O)N(C)C)O[C@H](CO)[C@H]2O3)cc1 | 18 | 13
Cc1ccc(S(=O)(=O)N[C@@H]2CC[C@H](CCNC(=O)Cc3ccccn3)O[C@@H]2CO)cc1 | -2 | 3
CCC(=O)Nc1ccc2c(c1)C(=O)N(C)C[C@@H](OC)[C@H](C)CN(C(=O)NC(C)C)[C@@H](C)CO2 | 4 | 7
CCCN(C)C[C@@H]1Oc2ncc(-c3cccc(C(=O)N(C)C)c3)cc2C(=O)N([C@@H](C)CO)C[C@H]1C | 39 | 10
C[C@@H](O)C#Cc1ccc([C@@H]2[C@H]3CN(S(=O)(=O)Cc4ccccc4)CCCCN3[C@H]2CO)cc1 | 24 | 26

# In the list so far, 4 have a Cl atom:
Molecule | Vaccinia inh | Vaccinia inh Venus
Cc1noc(C)c1NC(=O)N(C)C[C@@H]1OCCCC[C@@H](C)Oc2ccc(NS(=O)(=O)c3ccc(Cl)cc3)cc2C(=O)N([C@H](C)CO)C[C@@H]1C | 12 | 10
C[C@@H]1CN([C@H](C)CO)C(=O)c2cccc(NC(=O)C3CCOCC3)c2O[C@@H]1CN(C)S(=O)(=O)c1ccc(Cl)cc1 | 6 | 3
CC(C)NC(=O)N(C)C[C@@H]1OCCCC[C@H](C)Oc2ccc(NS(=O)(=O)c3ccc(Cl)cc3)cc2C(=O)N([C@H](C)CO)C[C@H]1C | 4 | 5
C[C@@H]1CN([C@H](C)CO)C(=O)c2cc(NC(=O)NC3CCCCC3)ccc2O[C@@H](C)CCCCO[C@@H]1CN(C)S(=O)(=O)c1ccc(Cl)cc1 | 20 | 29

# Following part.
Molecule | Vaccinia inh | Vaccinia inh Venus
O=S(=O)(N[C@H]1CC[C@H](CCn2cc(-c3cccc(F)c3)nn2)O[C@H]1CO)c1ccccc1 | 15 | 2
C[C@@H]1CCCCO[C@@H](CN(C)C(=O)Nc2cccc3ccccc23)[C@H](C)CN([C@H](C)CO)C(=O)c2cc(N(C)C)ccc2O1 | -17 | -8
N#C[C@@H]1[C@H](c2ccc(C#CC3CCCCC3)cc2)[C@@H](CO)N1S(=O)(=O)c1ccccc1 | ? | ·
O=C(C[C@@H]1C=C[C@H](NC(=O)CN2CCOCC2)[C@@H](CO)O1)NCCc1ccccc1 | 19 | 11
C[C@@H]1CN([C@H](C)CO)C(=O)c2cc(NC(=O)CCN3CCOCC3)ccc2O[C@H]1CN(C)Cc1ccc(-c2ccccc2)cc1 | 9 | -5
CO[C@H]1O[C@H](CO)[C@@H](OC(=O)Nc2ccccc2)[C@H](OC(=O)Nc2ccc3c(c2)OCO3)[C@@H]1OC(=O)Nc1ccc2c(c1)OCO2 | ? | ·
C/C=C/c1ccc([C@H]2[C@@H](CO)N(C(=O)C3CC3)[C@@H]2CN(CC)C(C)=O)cc1 | 7 | 6
CO[C@H]1CN(C)C(=O)c2cc(NS(=O)(=O)c3cccc(F)c3)ccc2OC[C@@H](C)N(Cc2cc(F)ccc2F)C[C@@H]1C | -21 | -29
COc1ccc(S(=O)(=O)N[C@@H]2C=C[C@@H](CC(=O)N3CCc4ccccc4C3)O[C@@H]2CO)cc1 | -13 | -6
CCc1sc(N2[C@@H](C#N)[C@@H](c3ccccc3-c3cccc(F)c3)[C@@H]2CO)nc1C | 7 | 15
Cc1ccc(S(=O)(=O)Nc2cccc3c2O[C@@H](CN(C)Cc2ccc(C(=O)Nc4ccccc4N)cc2)[C@@H](C)CN([C@@H](C)CO)C3=O)cc1 | -23 | -21
C[C@H](CO)N1C[C@H](C)[C@@H](CN(C)C(=O)[C@@H](Cc2ccccc2)N(C)C)OCc2ccccc2-c2ccccc2C1=O | ? | ·
CO[C@@H](CN(C)S(=O)(=O)c1ccc(C)cc1)[C@@H](C)CN(C(=O)Nc1ccccc1F)[C@H](C)CO | -10 | -11
C[C@@H]1CCCCO[C@H](CN(C)C(=O)CCCN(C)C)[C@@H](C)CN([C@@H](C)CO)C(=O)c2cc(N(C)C)ccc2O1 | 12 | 4
COCC#Cc1cnc2c(c1)C(=O)N([C@H](C)CO)C[C@H](C)[C@H](CN(C)Cc1ccc(F)cc1)O2 | 15 | 8
COc1ccc(C#Cc2ccc([C@@H]3[C@@H](CO)N4CCCCN(C(=O)c5ccncc5)C[C@@H]34)cc2)cc1 | -26 | -15
O=C(C[C@H]1CC[C@@H](NS(=O)(=O)c2ccccc2)[C@H](CO)O1)N1CCC(Cc2ccccc2)CC1 | -9 | -17
O=C(C[C@@H]1C=C[C@H](NC(=O)Nc2ccc(C(F)(F)F)cc2)[C@@H](CO)O1)NCCN1CCCC1 | 2 | 12
C[C@@H]1CN([C@@H](C)CO)C(=O)Cc2cc(NC(=O)CCCN(C)C)ccc2O[C@H]1CN(C)C | 3 | 7
O=C1CN(S(=O)(=O)Cc2ccccc2)C[C@@H]2[C@@H](c3ccc(C#Cc4ccccc4)cc3)[C@@H](CO)N12 | ? | ·
C[C@@H]1CN([C@@H](C)CO)C(=O)c2cc(NC(=O)Nc3ccc4c(c3)OCO4)ccc2O[C@@H](C)CCCCO[C@H]1CN(C)Cc1ccc(C(F)(F)F)cc1 | -10 | -11
CN1C[C@@H](O)COC[C@H]2O[C@@H](CC(=O)NC3CCCC3)CC[C@@H]21 | 11 | 14
C[C@@H]1CN([C@@H](C)CO)S(=O)(=O)c2ccc(-c3ccncc3)cc2O[C@H]1CN(C)Cc1cncnc1 | 7 | -3
C[C@H](CO)N1C[C@H](C)[C@@H](CN(C)C(=O)Nc2ccc(C(F)(F)F)cc2)OCCCC[C@H](C)Oc2ccc(NC(=O)C3CCCCC3)cc2C1=O | -12 | -9
O=C(c1ccc2c(c1)OCO2)N1CC(=O)N2[C@@H](CO)[C@@H](c3ccc(C#CC4CCCC4)cc3)[C@@H]2C1 | ? | ·
Cc1cccc(-c2ccc(C3[C@@H]4CN(Cc5ccccc5)C[C@H]3N4)cc2)c1 (stereo partly drawn) | ? | ·
C[C@@H]1CN([C@@H](C)CO)S(=O)(=O)c2ccc(Br)cc2O[C@@H]1CN(C)S(C)(=O)=O | 0 | -7
C[C@@H]1CN([C@H](C)CO)C(=O)c2ccccc2-c2ccccc2CO[C@H]1CN(C)S(=O)(=O)c1cccs1 | 5 | -5
Cc1noc(C)c1NC(=O)N[C@@H]1CC[C@H](CC(=O)NCc2ccc(Cl)c(Cl)c2)O[C@H]1CO | 11 | 14
Cc1cc(C(=O)Nc2cccc3c2O[C@@H](CN(C)S(=O)(=O)c2ccccc2)[C@@H](C)CN([C@@H](C)CO)C3=O)n(C)n1 | 15 | 3
CNC[C@@H]1Oc2ccc(NS(=O)(=O)c3ccc(C)cc3)cc2C(=O)N([C@@H](C)CO)C[C@@H]1C | 12 | 4
C/C=C/c1cnc2c(c1)C(=O)N([C@@H](C)CO)C[C@H](C)[C@@H](CN(C)C(=O)Nc1cccc(OC)c1)O2 | 8 | 2
CC(C)NC(=O)Nc1ccc2c(c1)C(=O)N([C@H](C)CO)C[C@H](C)[C@H](CN(C)Cc1ccc(Cl)c(Cl)c1)OCCCC[C@H](C)O2 | ? | ·
C[C@@H]1CN([C@@H](C)CO)C(=O)c2cc(NC(=O)Cn3cnnn3)ccc2O[C@@H]1CN(C)Cc1ccc(C(=O)Nc2ccccc2N)cc1 | 18 | 1
CC(=O)NC[C@H]1[C@H](c2ccc(-c3ccccc3F)cc2)[C@@H](CO)N1C(C)=O | 9 | 12
C[C@H]1CN([C@@H](C)CO)C(=O)c2cc(NC(=O)Nc3cccc4ccccc34)ccc2O[C@@H]1CN(C)C(=O)Nc1cccc2ccccc12 | 26 | 11
CC(C)CC#Cc1cnc2c(c1)C(=O)N([C@H](C)CO)C[C@@H](C)[C@H](CN(C)C(=O)C1CCCCC1)O2 | -31 | -17
COCC(=O)Nc1ccc2c(c1)C(=O)N(C)C[C@@H](OC)[C@H](C)CN(Cc1cc(-c3ccccc3)on1)[C@H](C)CO2 | -9 | -3
COc1ccc(C#Cc2ccc3c(c2)[C@H]2[C@H](CCN2C(=O)C2CCCC2)[C@@H](CO)N3)cc1 | -10 | -2
Cc1ccccc1S(=O)(=O)N1C[C@H](O)COC[C@@H]2O[C@H](CC(=O)N3CCN(C)CC3)CC[C@H]21 | -11 | -1
C[C@H](CO)N1C[C@H](C)[C@@H](CN(C)Cc2ccccc2)Oc2ccc(NS(=O)(=O)c3ccc(F)cc3)cc2CC1=O | -34 | -24
COCCNC(=O)C[C@H]1C[C@@H]2c3cc(NC(=O)Nc4ccc(C(F)(F)F)cc4)ccc3O[C@@H]2[C@H](CO)O1 | -2 | 4
COc1ccc2c3c([nH]c2c1)[C@H](CO)N(C(=O)C1CCOCC1)CC31CN(C(=O)NC(C)C)C1 | 22 | 12
O=C(C[C@H]1C[C@H]2c3cc(NC(=O)NC4CCCCC4)ccc3O[C@H]2[C@@H](CO)O1)NCc1ccccn1 | -4 | -9
C[C@@H]1CN([C@H](C)CO)C(=O)Cc2cc(NC(=O)Nc3cccc4ccccc34)ccc2O[C@H]1CN(C)C(=O)NC1CCCCC1 | -4 | -4
CNC[C@@H]1Oc2ncc(C#Cc3ccncc3)cc2C(=O)N([C@H](C)CO)C[C@@H]1C | 6 | 9
O=C(C[C@H]1CC[C@H](NC(=O)Cc2cccnc2)[C@H](CO)O1)Nc1ccc(-c2ccccc2)cc1 | -15 | -6
CC(=O)N1[C@H](C(=O)NCC2CC2)[C@@H](CO)[C@@H]2Cn3c(ccc(C4=CCCC4)c3=O)[C@@H]21 | 18 | 13
CC(C)NC(=O)Nc1ccc2c(c1)CC(=O)N([C@H](C)CO)C[C@H](C)[C@@H](CN(C)C(=O)Nc1cccc3ccccc13)O2 | 23 | 22

# Entries of single compounds, looked up by structure. Order of values: Vaccinia inh	Vaccinia inh Venus
# `O=C(CC1CC1)Nc1ccc2c(c1)[C@@H]1C[C@@H](CC(=O)N3CCCCC3)O[C@H](CO)[C@@H]1O2` as listed: 7	3
# `C[C@@H]1CN([C@H](C)CO)C(=O)c2cccc(NC(=O)c3ccncc3)c2O[C@H]1CN(C)CC1CCCCC1` as listed: -2	-1
